Vif TR-FRET: inhibitors of Vif binding to APOBEC3G peptide, primary screen, biochemical, TR-FRET, GST-Vif 1-94, biotin-A3G peptide, dose response retest (AID 1117319). TR-FRET GST-Vif / biotin-A3G peptide binding; higher % means a stronger effect; test concentration not given here; strong numbers were not always called active. inhibition, %; hits with a dose series show IC50 in µM. 260,000 tested, 0.57% active;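 active = above the screen mean plus three standard deviations and confirmed in dose response; inconclusive = results disagree or hit not tested in dose response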;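 note: Vif residues 1-94 fused to GST binding biotinylated APOBEC3G peptide 110-148; 0% = full assay without inhibitor and 100% = GST in place of GST-Vif; retest series ran down from 100 µM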
AF4-AF9 inh: MLL-AF4/AF9 protein interaction inhibition | AlphaScreen, biotin-AF4 peptide binding to FLAG-AF9 | inhibition, % at 10 µM | 350,000 tested, 0.47% active;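 active = every replicate reaching a set inhibition limit, whatever the replicate mean, cut at about 25% in these data; inconclusive = mean inhibition reaches that limit but some replicates miss it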;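 note: 0% = plate neutral control median and 100% = total signal loss; the record names both 10 and 1 µM as test concentration; the first replicate is given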
Target sequence (P42568 whole entry, looked up): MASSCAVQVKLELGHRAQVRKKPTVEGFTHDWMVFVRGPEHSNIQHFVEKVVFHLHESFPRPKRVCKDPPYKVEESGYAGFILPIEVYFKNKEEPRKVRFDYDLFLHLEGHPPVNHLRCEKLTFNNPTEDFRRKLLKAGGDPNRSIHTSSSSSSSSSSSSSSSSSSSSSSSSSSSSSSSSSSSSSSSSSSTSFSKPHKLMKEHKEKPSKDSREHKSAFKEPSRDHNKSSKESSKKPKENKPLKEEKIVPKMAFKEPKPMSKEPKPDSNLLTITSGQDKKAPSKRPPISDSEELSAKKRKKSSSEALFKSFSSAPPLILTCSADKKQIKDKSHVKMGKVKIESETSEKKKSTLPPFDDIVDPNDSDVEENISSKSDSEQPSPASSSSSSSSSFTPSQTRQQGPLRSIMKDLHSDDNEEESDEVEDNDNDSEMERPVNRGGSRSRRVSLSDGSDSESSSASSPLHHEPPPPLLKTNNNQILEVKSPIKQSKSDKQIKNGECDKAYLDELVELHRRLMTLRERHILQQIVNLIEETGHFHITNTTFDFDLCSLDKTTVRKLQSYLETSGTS
RanGTP-Impb inh: inhibitors of RanGTP-importin-beta interaction, primary screen, biochemical, FRET, CFP-Ran, YFP-importin-beta, homogeneous; 300,000 tested, 1.1% active; inhibition, % (test concentration not listed); AID 2216; cell-free CFP-Ran/YFP-importin-beta FRET ratio;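 active = most replicates above 15%; inconclusive = exactly half above 15%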;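 note: 0% = DMSO wells and 100% = Ran loaded with GDP instead of GTP; wells of about 40 µL received 100 nL stock; the first replicate is given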
Beta apoptosis: blocks beta cell apoptosis; INS-1E cytokine-induced death, ATP luminescence, 48 h; percent of positive-control rescue, neutral wells zero; protection from apoptosis, % (test concentration not listed); 300,000 tested, 0.8% active; AID 435005;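 active = all replicates at 75% or more, or half of them and the mean; inconclusive = half reach 75% but not the mean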;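 note: 0% = cytokine-treated negative control wells and 100% = positive control rescue; higher means more ATP so stronger rescue from cytokine killing; wells of about 40 µL received 100 nL stock; the first replicate is given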
A1 inh: inhibitors of the anti-apoptotic protein A1, read as caspase activation; MEF A1-2A-BIM cells, Caspase-Glo 3/7 luminescence, 3 h; percent of clofoctol response, vehicle zero; 330,000 tested, 0.066% active; caspase activation, % (concentration not given with the values);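 active = over half of replicate activation scores above 10%, or exactly half above 10 with the replicate mean above 10; inconclusive = replicate mean below 10 yet half the replicates above 10; inactive = over half of replicates below 10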;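 note: wells of about 30 µL received 50 nL stock; many hits fall short of the cut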
Ecoli rRNA inh: inhibits bacterial ribosomal RNA function over humanized ribosomes; E. coli WT GFP vs humanized-ribosome RFP mutants, fluorescence, 24 h; active compounds read low; DMSO median 0, no signal -100; GFP signal change (wild-type ribosome), % (test concentration not listed); 350,000 tested, 1.6% active; AID 720706;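 active = significant combined selectivity score with lowered wild-type GFP, culture density cut under 30%, mutant RFP and density less affected; inactive = any of these conditions unmet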; note: one replicate is shown; some compounds called inactive have numbers as strong as hits
T cruzi repl: blocks replication of Trypanosoma cruzi; 300,000 tested, 1.4% active; inhibition, % (concentration not given with the values); AID 1885; T. cruzi beta-gal in NIH3T3, luminescence, 90 h;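 active = mean inhibition across valid replicates above about 55%, limit read from the data; inconclusive = mean below that limit but half or more replicates reach it; inactive = mean below it, under half of replicates reach it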;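 note: signal also drops with host cell toxicity which is not excluded here; 0% = plate median of DMSO wells and 100% = zero luminescence signal; higher percent means less beta-gal luminescence so fewer parasites; stock transfer was 50 nL into about 50 µL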
Calb FLC: C. albicans growth modulation with fluconazole. C. albicans CaCi-2 (fluconazole-resistant clinical isolate) + fluconazole, Alamar Blue growth, 48 h. growth inhibition, % (concentration not given with the values). 300,000 tested, 0.57% active. AID 1979;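 active = most replicates above 75%; inconclusive = exactly half above 75%; inactive = most below 75%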;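 note: all wells also contain fluconazole at 8 µg/ml as a sub-toxic cotreatment; 0% = median of DMSO wells and 100% = median of geldanamycin control wells; wells of about 8 µL received 7.5 nL stock; the first replicate is given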
Ecoli rRNA inh OD600: recorded beside Ecoli rRNA inh, whose call it bears; OD600 change, %; measured here: OD600 growth;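 optical density of the mix in the first replicate; 0 = DMSO median and -100 = no signal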
Ecoli rRNA inh RFP: further read-out of Ecoli rRNA inh, marked with its call; RFP signal change, %; measured here: RFP humanized mutant strains;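 first replicate; 0 = DMSO median and -100 = no signal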
* marks the source's active call; other numbers are inactive results; ? = inconclusive; nt = not tested or not shown.

SMILES	Vif TR-FRET	AF4-AF9 inh	RanGTP-Impb inh	Beta apoptosis	A1 inh	Ecoli rRNA inh	Ecoli rRNA inh OD600	Ecoli rRNA inh RFP	T cruzi repl	Calb FLC
CC(C)(C)c1ccc(C(=O)NC(=S)NCc2ccco2)cc1	-2%	0.9	-0.1	9	-0.4	-1	-46	12	32	2
O=C(O)c1cccc(NC(=O)c2cn(-c3ccccc3)nc2-c2ccc([N+](=O)[O-])cc2)c1	nt	-6.1	?	-4	0.1	-11	-2	-0.2	1	9
COc1ccc(OCCOC(=O)CNC(=O)c2ccc(C)cc2)cc1	0%	0.2	4.0	-5	1.0	0	7	0.5	-13	-3
O=C1CCCc2c1nn(-c1ccccc1)[n+]2[O-]	-1%	4.5	?	0	0.6	17	14	-6.3	-7	?
CCOC(=O)c1c(S(=O)(=O)NCC(=O)Nc2cccc(C)c2)c(C)n(C)c1C	1%	-2.0	3.5	4	-1.3	5	-4	1.0	11	11
CCCS(=O)(=O)c1c(S(=O)(=O)CCC)c2c(N)cccn2c1C(=O)c1ccccc1	15%	-19	-10.0	-7	-0.5	10	6	2.1	-10	7
CCOC(=O)c1sc(NC(=O)/C=C/c2cnn(C)c2C)c(C(=O)OC(C)C)c1C	1%	-49	0.7	11	-0.6	7	14	5.5	-2	-12
CC(=O)NC(C)C(=O)OCc1ccc(Cl)cc1Cl (stereo not given)	-3%	nt	1.3	-8	-0.1	nt	nt	nt	-4	20
CN(Cc1ccccc1)C(=O)c1ccc(NC(=O)C2CCN(C(=O)OC(C)(C)C)CC2)cc1	nt	-2.8	nt	4	-0.3	9	5	3.0	nt	nt

A second format for part of the listing above.
Value order: Vif TR-FRET, AF4-AF9 inh, RanGTP-Impb inh, Beta apoptosis, A1 inh, Ecoli rRNA inh, Ecoli rRNA inh OD600, Ecoli rRNA inh RFP, T cruzi repl, Calb FLC
CC(C)(C)c1ccc(C(=O)NC(=S)NCc2ccco2)cc1
    -2%, 0.9, -0.1, 9, -0.4, -1, -46, 12, 32, 2
O=C(O)c1cccc(NC(=O)c2cn(-c3ccccc3)nc2-c2ccc([N+](=O)[O-])cc2)c1
    nt, -6.1, ?, -4, 0.1, -11, -2, -0.2, 1, 9
COc1ccc(OCCOC(=O)CNC(=O)c2ccc(C)cc2)cc1
    0%, 0.2, 4.0, -5, 1.0, 0, 7, 0.5, -13, -3
O=C1CCCc2c1nn(-c1ccccc1)[n+]2[O-]
    -1%, 4.5, ?, 0, 0.6, 17, 14, -6.3, -7, ?
CCOC(=O)c1c(S(=O)(=O)NCC(=O)Nc2cccc(C)c2)c(C)n(C)c1C
    1%, -2.0, 3.5, 4, -1.3, 5, -4, 1.0, 11, 11
CCCS(=O)(=O)c1c(S(=O)(=O)CCC)c2c(N)cccn2c1C(=O)c1ccccc1
    15%, -19, -10.0, -7, -0.5, 10, 6, 2.1, -10, 7
CCOC(=O)c1sc(NC(=O)/C=C/c2cnn(C)c2C)c(C(=O)OC(C)C)c1C
    1%, -49, 0.7, 11, -0.6, 7, 14, 5.5, -2, -12
CC(=O)NC(C)C(=O)OCc1ccc(Cl)cc1Cl (stereo not given)
    -3%, nt, 1.3, -8, -0.1, nt, nt, nt, -4, 20
CN(Cc1ccccc1)C(=O)c1ccc(NC(=O)C2CCN(C(=O)OC(C)(C)C)CC2)cc1
    nt, -2.8, nt, 4, -0.3, 9, 5, 3.0, nt, nt

Single records, from the list above. Order of screens: Vif TR-FRET	AF4-AF9 inh	RanGTP-Impb inh	Beta apoptosis	A1 inh	Ecoli rRNA inh	Ecoli rRNA inh OD600	Ecoli rRNA inh RFP	T cruzi repl	Calb FLC
`CCOC(=O)c1c(S(=O)(=O)NCC(=O)Nc2cccc(C)c2)c(C)n(C)c1C` across the screens: 1%	-2.0	3.5	4	-1.3	5	-4	1.0	11	11
`COc1ccc(OCCOC(=O)CNC(=O)c2ccc(C)cc2)cc1` across the screens: 0%	0.2	4.0	-5	1.0	0	7	0.5	-13	-3

Compound activity from PubChem.

The list is partial. The share of hits here may be higher or lower than overall.
